DUX4 inh = blocks DUX4-driven transcriptional activation | 293T-iDUX4 ZSCAN4-Gaussia luciferase reporter, 24 h; active compounds read low | activity change, negative = inhibition, % (concentration not given with the values) | 37,000 compounds, 0.8% hits;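 active = -10% or lower and over 25 points stronger than a control reporter; inconclusive = -10% or lower with a smaller gap; inactive = above -10%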;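 also: 0% = median of neutral control wells and -100% = median of positive control wells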
DUX4 inh difference = second read-out of DUX4 inh, no call of its own (marks repeat the call); Gaussia minus Italica difference, %; measured here: selective DUX4 reporter inhibition;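 worked out from the two reporters; negative = selective loss of the DUX4 reporter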
DUX4 inh control = further read-out of DUX4 inh, marked with its call; activity change, negative = inhibition, %; measured here: Italica tet-on control reporter;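 0 = neutral control and -100 = positive control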
Numbers without * were called inactive; ? = inconclusive; / = no result given; & = joins results of further samples.

DUX4 inh	DUX4 inh difference	DUX4 inh control	canonical_smiles
-1	4	-4.7	C[C@@H]1CCCCO[C@@H](CN(C)Cc2ccccc2)[C@H](C)CN([C@H](C)CO)C(=O)c2cc(NC(=O)Nc3ccc(F)cc3)ccc2O1
16	19	-2.3	C[C@H]1CN([C@@H](C)CO)C(=O)c2ccccc2-c2ccccc2CO[C@H]1CN(C)C(=O)Nc1ccc(F)cc1
-8	-12	3.7	CC(C)C#Cc1ccc([C@H]2[C@H](CO)N3C(=O)CN(C(=O)C4CCCCC4)C[C@@H]23)cc1
5	3	2.3	C[C@@H]1CCCCO[C@@H](CN(C)S(=O)(=O)c2cn(C)cn2)[C@H](C)CN([C@H](C)CO)C(=O)c2cc(N(C)C)ccc2O1
5	4	1.3	O=C(NC1CCCC1)N[C@@H]1C=C[C@H](CC(=O)N2CCOCC2)O[C@H]1CO
14	22	-8.1	CCCC(=O)N1CC2(CCN(C(=O)C3CCC3)CC2)c2c(n(C)c3cc(OC)ccc23)[C@H]1CO
10	2	7.8	O=C(CN1CCOCC1)N1CCCCN2[C@H](CO)[C@@H](c3ccc(Br)cc3)[C@@H]2C1
11	15	-5.0	O=C(CN1CCOCC1)N1CC[C@@H]2[C@@H](CO)Nc3ccc(Br)cc3[C@@H]21
-4	3	-7.3	COc1ccc(NC(=O)N2CC(=O)N3[C@@H](CO)[C@@H](c4ccc(-c5ccc(C)cc5)cc4)[C@@H]3C2)cc1
-1	-3	2.6	C[C@@H]1CN([C@H](C)CO)C(=O)CCCn2cc(nn2)CO[C@H]1CN(C)Cc1ccc2c(c1)OCCN2C
1	1	0.2	CO[C@H]1CN(C)C(=O)c2cc(NC(=O)C3CCCCC3)ccc2OC[C@H](C)N(Cc2cccnc2)C[C@H]1C
10	3	6.5	Cn1cnc(S(=O)(=O)N2C[C@H](O)COC[C@H]3O[C@@H](CC(=O)NCc4cccc(F)c4)CC[C@@H]32)c1
14	-17	31	Cc1ccccc1-c1ccc([C@H]2[C@H]3CN(C(=O)CN4CCOCC4)CCCCN3[C@H]2CO)cc1
-3	-2	-1.1	C[C@H](NC(=O)C[C@H]1CC[C@@H]2[C@H](COc3ccc(NS(=O)(=O)c4ccc(Cl)cc4)cc3C(=O)N2C)O1)c1ccccc1
-5	-10	4.3	CO[C@@H]1CN(C)C(=O)c2cc(NC(=O)C3CC3)ccc2OC[C@@H](C)N(CC2CC2)C[C@H]1C
0	-1	1.3	CS(=O)(=O)N1[C@@H](C#N)[C@H](c2ccc(C#CC3CCCCC3)cc2)[C@@H]1CO
3	2	0.9	CCNC(=O)C[C@@H]1CC[C@@H]2[C@@H](COc3ccc(NC(=O)c4ccc5c(c4)OCO5)cc3C(=O)N2C)O1
10	2	8.3	Cn1cnc(S(=O)(=O)N2CCCCN3[C@H](CO)[C@@H](c4ccc(-c5ccccc5F)cc4)[C@@H]3C2)c1
10	11	-1.6	CCCNC(=O)N1C[C@H](C)[C@@H](OC)CN(C)C(=O)c2ccc(NC(=O)CC)cc2OC[C@@H]1C
-20*	-31*	11*	COc1cccc(-c2ccc(C3[C@@H]4CN(S(=O)(=O)c5ccccc5)C[C@H]3N4)cc2)c1 (stereo partly specified)
-8	-1	-7.2	Cc1ccc(-c2ccc([C@H]3[C@H]4CN(C(=O)Nc5cccc(F)c5)CC(=O)N4[C@H]3CO)cc2)cc1
3	-3	5.3	C[C@H](CO)N1C[C@H](C)[C@@H](CN(C)C)Oc2ccc(NC(=O)CCCN(C)C)cc2CC1=O
-1	-4	3.1	CC(C)C(=O)Nc1ccc2c(c1)C(=O)N(C)[C@H]1CC[C@@H](CC(=O)NC3CCCC3)O[C@H]1CO2
-1	-4	2.9	O=C(C[C@@H]1CC[C@H]2[C@@H](COC[C@@H](O)CN2S(=O)(=O)c2ccccc2F)O1)NCc1ccccc1Cl
-1	-3	2.2	CCC(=O)NC[C@@H]1[C@@H](c2ccc(C3=CCCC3)cc2)[C@@H](CO)N1C(C)=O
-2	-3	1.6	N#C[C@H]1[C@H](c2ccc(C3=CCCCC3)cc2)[C@@H](CO)N1C(=O)c1ccccn1
2	4	-2.7	CN1c2ccc(-c3ccccc3)cc2[C@H]2[C@H](CCN2C(=O)c2ccc(F)cc2)[C@H]1CO
0	6	-5.5	O=C(Nc1ccc2c(c1)[C@H]1C[C@H](CC(=O)N3CCOCC3)O[C@H](CO)[C@H]1O2)Nc1ccccc1F
6	4	2.4	COc1cccc(S(=O)(=O)N(C)C[C@H]2Oc3cc(C4=CCCCC4)ccc3S(=O)(=O)N([C@@H](C)CO)C[C@@H]2C)c1
-3	-5	2.1	C[C@@H]1CN([C@H](C)CO)S(=O)(=O)c2ccc(-c3ccc(C#N)cc3)cc2O[C@@H]1CN(C)C(=O)C1CC1
1	-3	3.2	COC(=O)[C@@H]1[C@@H](CO)[C@@H]2Cn3c(ccc(C4=CCCC4)c3=O)[C@@H]2N1CC1CCOCC1
-3	-8	4.6	COc1ccc(CNC(=O)C[C@H]2C[C@@H]3c4cc(NC(=O)NC5CCCC5)ccc4O[C@@H]3[C@@H](CO)O2)cc1
-3	-5	1.6	COc1ccc(S(=O)(=O)Nc2ccc3c(c2)C(=O)N([C@@H](C)CO)C[C@H](C)[C@@H](CN(C)C(=O)CCC(F)(F)F)OCCCC[C@H](C)O3)cc1
10	11	-0.1	CCCC#Cc1ccc([C@H]2[C@H](CO)N3CCCCN(Cc4cccnc4)C[C@@H]23)cc1
2	1	0.4	COc1ccc(S(=O)(=O)Nc2ccc3c(c2)C(=O)N([C@H](C)CO)C[C@@H](C)[C@@H](CN(C)C(=O)Nc2cccc4ccccc24)OCCCC[C@@H](C)O3)cc1
-7	1	-7.7	C/C=C/c1ccc([C@@H]2[C@H](CO)N(Cc3cccc(F)c3)C23CN(C(=O)CC)C3)cc1
9&13	4&11	4.7&2.1	c1ccc(-c2ccc(C3[C@H]4CNC[C@@H]3N4Cc3nccs3)cc2)cc1 (stereo partly specified)
11	7	3.9	COc1ccc2c3c(n(C)c2c1)[C@H](CO)N(C(C)=O)CC31CN(S(=O)(=O)c2ccccc2)C1
8	5	3.0	CN1CCN(C(=O)C[C@H]2C[C@@H]3c4cc(NC(=O)c5ccc6c(c5)OCO6)ccc4O[C@@H]3[C@H](CO)O2)CC1
-2	1	-3.3	CNC[C@@H]1Oc2c(NC(=O)C3CCOCC3)cccc2C(=O)N([C@@H](C)CO)C[C@H]1C
1	0	1.4	CC(C)C#Cc1ccc([C@@H]2[C@@H](C#N)N(C(=O)c3cccc(F)c3)[C@@H]2CO)cc1
-5	-4	-1.8	Cc1cccc(-c2ccc([C@@H]3[C@@H](CO)N4CCCCN(S(=O)(=O)c5ccccc5F)C[C@@H]34)cc2)c1
-7	-13	6.3	C/C=C/c1ccc([C@@H]2[C@H](CO)N(CCC(F)(F)F)C23CN(C(=O)CC)C3)cc1
-3	-1	-2.3	C[C@@H]1CN([C@H](C)CO)C(=O)c2cccc(NC(=O)c3cnccn3)c2O[C@@H]1CN(C)C(=O)Nc1ccc2c(c1)OCO2
-4	-3	-1.0	CCCNC(=O)N(C)C[C@@H]1Oc2ncc(-c3ccc(C(=O)N(C)C)cc3)cc2C(=O)N([C@H](C)CO)C[C@H]1C
2	5	-2.9	Cc1noc(C)c1NC(=O)N(C)C[C@H]1OCCCC[C@@H](C)Oc2ccc(NS(=O)(=O)c3cn(C)cn3)cc2C(=O)N([C@@H](C)CO)C[C@H]1C
5	8	-2.9	CCCNC(=O)N1CC(=O)N2[C@H](CO)[C@H](c3ccc(-c4cccc(C)c4)cc3)[C@@H]2C1
-2	-3	1.3	CN1C(=O)c2cc(NC(=O)c3cccc(F)c3)ccc2OC[C@@H]2O[C@@H](CC(=O)Nc3ccccc3)CC[C@@H]21
-1	0	-1.6	Cc1noc(C)c1NC(=O)Nc1ccc2c(c1)CC(=O)N([C@@H](C)CO)C[C@@H](C)[C@@H](CN(C)C(=O)NC1CCCCC1)O2
2	-2	4.4	COc1ccccc1-c1ccc2n(c1=O)C[C@H]1[C@H](CO)[C@@H](C(=O)N3CCN(C)CC3)[C@@H]2N1CC1CC1

Shown bar-delimited: part of the list above
compound | DUX4 inh | DUX4 inh difference | DUX4 inh control
N#C[C@H]1[C@H](c2ccc(C3=CCCCC3)cc2)[C@@H](CO)N1C(=O)c1ccccn1 | -2 | -3 | 1.6
CN1c2ccc(-c3ccccc3)cc2[C@H]2[C@H](CCN2C(=O)c2ccc(F)cc2)[C@H]1CO | 2 | 4 | -2.7
O=C(Nc1ccc2c(c1)[C@H]1C[C@H](CC(=O)N3CCOCC3)O[C@H](CO)[C@H]1O2)Nc1ccccc1F | 0 | 6 | -5.5
COc1cccc(S(=O)(=O)N(C)C[C@H]2Oc3cc(C4=CCCCC4)ccc3S(=O)(=O)N([C@@H](C)CO)C[C@@H]2C)c1 | 6 | 4 | 2.4
C[C@@H]1CN([C@H](C)CO)S(=O)(=O)c2ccc(-c3ccc(C#N)cc3)cc2O[C@@H]1CN(C)C(=O)C1CC1 | -3 | -5 | 2.1
COC(=O)[C@@H]1[C@@H](CO)[C@@H]2Cn3c(ccc(C4=CCCC4)c3=O)[C@@H]2N1CC1CCOCC1 | 1 | -3 | 3.2
COc1ccc(CNC(=O)C[C@H]2C[C@@H]3c4cc(NC(=O)NC5CCCC5)ccc4O[C@@H]3[C@@H](CO)O2)cc1 | -3 | -8 | 4.6
COc1ccc(S(=O)(=O)Nc2ccc3c(c2)C(=O)N([C@@H](C)CO)C[C@H](C)[C@@H](CN(C)C(=O)CCC(F)(F)F)OCCCC[C@H](C)O3)cc1 | -3 | -5 | 1.6
CCCC#Cc1ccc([C@H]2[C@H](CO)N3CCCCN(Cc4cccnc4)C[C@@H]23)cc1 | 10 | 11 | -0.1
COc1ccc(S(=O)(=O)Nc2ccc3c(c2)C(=O)N([C@H](C)CO)C[C@@H](C)[C@@H](CN(C)C(=O)Nc2cccc4ccccc24)OCCCC[C@@H](C)O3)cc1 | 2 | 1 | 0.4
C/C=C/c1ccc([C@@H]2[C@H](CO)N(Cc3cccc(F)c3)C23CN(C(=O)CC)C3)cc1 | -7 | 1 | -7.7
c1ccc(-c2ccc(C3[C@H]4CNC[C@@H]3N4Cc3nccs3)cc2)cc1 (stereo partly specified) | 9&13 | 4&11 | 4.7&2.1
COc1ccc2c3c(n(C)c2c1)[C@H](CO)N(C(C)=O)CC31CN(S(=O)(=O)c2ccccc2)C1 | 11 | 7 | 3.9
CN1CCN(C(=O)C[C@H]2C[C@@H]3c4cc(NC(=O)c5ccc6c(c5)OCO6)ccc4O[C@@H]3[C@H](CO)O2)CC1 | 8 | 5 | 3.0

Remaining list, next part
DUX4 inh	DUX4 inh difference	DUX4 inh control	canonical_smiles
?	/	/	Cc1ccccc1S(=O)(=O)N1CCCCN2[C@H](CO)[C@H](c3ccc(-c4cccnc4)cc3)[C@H]2C1
17	14	2.8	CCC(=O)N1[C@H](CO)[C@@H](c2ccccc2)C12CN(Cc1cccnc1)C2
14	-7	21	COc1ccc2c3c([nH]c2c1)[C@H](CO)N(C(=O)CC1CC1)CC31CN(Cc2cccnc2)C1
-2	-6	3.3	COc1cccc(-c2ccc([C@@H]3[C@@H](CO)N(C(C)=O)C34CN(C(C)=O)C4)cc2)c1
-1	-1	-0.2	C[C@H](CO)N1C[C@H](C)[C@@H](CN(C)C(=O)Nc2ccccc2)OCc2cn(nn2)CCCC1=O
-4	-2	-2.6	COCC#Cc1ccc([C@@H]2[C@H](CO)N3C(=O)CN(C(=O)Nc4cc(F)ccc4F)C[C@@H]23)cc1
-8	-9	0.6	N#Cc1cccc(-c2ccc([C@H]3[C@@H](CO)N4CCCCN(C(=O)Nc5cccc(F)c5)C[C@@H]34)cc2)c1
-1	1	-2.6	COc1ccccc1C#Cc1cnc2c(c1)C(=O)N([C@@H](C)CO)C[C@H](C)[C@@H](CN(C)C(=O)CN(C)C)O2
3	5	-1.6	O=C(C[C@H]1CC[C@H]2[C@@H](COC[C@H](O)CN2CC2CCCCC2)O1)NCc1ccc(F)cc1
-5	-6	1.5	COCC(=O)Nc1ccc2c(c1)C(=O)N(C)C[C@H](OC)[C@H](C)CN(Cc1cccc(F)c1)[C@H](C)CO2
0	3	-3.4	COc1ccc(NC(=O)Nc2ccc3c(c2)[C@@H]2C[C@H](CC(=O)N4CCc5ccccc5C4)O[C@H](CO)[C@@H]2O3)cc1
1	-3	3.5	CN1C(=O)c2cc(NC(=O)c3cccs3)ccc2OC[C@@H]2O[C@@H](CC(=O)NCC3CC3)CC[C@@H]21
3	1	1.2	COc1ccc(S(=O)(=O)Nc2ccc3c(c2)C(=O)N([C@H](C)CO)C[C@H](C)[C@@H](CN(C)CC2CC2)OCCCC[C@H](C)O3)cc1
0	-1	1.3	C[C@H](CO)N1C[C@H](C)[C@@H](CN(C)C)Oc2ccc(NC(=O)Nc3ccc4c(c3)OCO4)cc2C1=O
20	18	1.7	CN(C)C(=O)c1cccc(-c2ccc([C@H]3[C@H]4CN(CC5CCOCC5)CCCCN4[C@H]3CO)cc2)c1
-1	-2	1.1	COc1ccccc1C(=O)N1C[C@H]2[C@@H](c3ccccc31)[C@H](CO)N2C(=O)Nc1ccccc1
0	-1	1.1	CN1CCN(C(=O)C[C@@H]2CC[C@H]3[C@@H](COc4ccc(NC(=O)C5CCOCC5)cc4C(=O)N3C)O2)CC1
2	-2	4.0	COCC(=O)Nc1ccc2c(c1)C(=O)N(C)[C@H]1CC[C@@H](CC(=O)N3CCc4ccccc4C3)O[C@H]1CO2
2	-5	7.4	CN(C)Cc1cn(CC[C@@H]2CC[C@H](NC(=O)Cc3cccnc3)[C@H](CO)O2)nn1
?	/	/	N#Cc1ccc(-c2ccc3c(c2)[C@H]2[C@H](CCN2C(=O)c2ccc4c(c2)OCO4)[C@@H](CO)N3)cc1
6	4	2.3	C[C@H](CO)N1C[C@H](C)[C@H](CN(C)C(=O)c2ccc(N3CCN(C)CC3)cc2)OCc2cnnn2CCCC1=O
1	4	-2.7	CCCNC(=O)[C@H]1[C@H](CO)[C@H]2Cn3c(ccc(-c4cccnc4)c3=O)[C@H]2N1Cc1cocn1
-7	-3	-4.1	COc1ccc(NC(=O)N2CC(=O)N3[C@H](CO)[C@@H](c4ccc(Br)cc4)[C@@H]3C2)cc1

Bioassay records as filed in PubChem BioAssay.

The list is partial. The share of hits here may be higher or lower than overall.
